HIV Env fusion – inhibitors of HIV-1 Env-driven cell-cell fusion, primary screen, HeLa-JRFL effector, CEM21 target cells, luciferase. 360,000 tested, 1.1% active. inhibition, % at 12.3 µM. AID 651610, 2012;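 active = mean replicate inhibition score of at least 50 and every replicate individually at or above 50; inconclusive = only one of the two criteria met; inactive = mean below 50 and not all replicates reaching 50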;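 also: 0% = plate neutral controls and 100% = maraviroc near 300 nM; one replicate is shown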
PABP FP inh – PABP poly(A) RNA binding inhibitors, primary screen, biochemical, fluorescence polarization, uHTS. Polyadenylate-binding protein 1 (Homo sapiens), P11940. inhibition, % at 35 µM. 290,000 tested, 1% active. AID 2014, 2009;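 active = 50% or more with normal probe brightness, or confirmed in later tests; inconclusive = above 50% with abnormal brightness, or retests that disagree; inactive = below 50% or failed in later tests; about a fifth of its hits are not listed in these tables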;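 also: calls also rest on retests at 20 µM and on dose response follow-up; controls were probe without protein and protein plus probe with vehicle; some compounds called inactive have numbers as strong as hits; many hits fall short of the cut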
CSC inhib – cancer stem cell viability inhibitors, primary screen, luminescence | inhibition, % at 7.5 µM | cancer stem cell-like cells viability | 300,000 tested, 1.1% active;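 active = mean at 75% or more and at least half the replicates too; inconclusive = mean and replicates disagree; tested in HMLE shEcad cells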;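 also: 0% = median of negative and 100% = median of positive control wells; the first replicate is given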
Rce1 inhib – yeast Rce1p protease inhibitors, primary screen, biochemical, fluorescence, cell-free homogeneous; yeast membranes, quenched prenylated peptide cleavage fluorescence; 290,000 tested, 0.27% active; calls only;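 active = fall in fluorescence gain of 50% or more versus controls, with final raw signal at or below 3038400; inconclusive = same 50% fall but final raw signal above 3038400; inactive = fall in fluorescence gain under 50%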;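 also: plate controls were neutral control wells for no effect and wells lacking membranes for full effect; tested at 10 µM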
Target sequence (Q03530 whole entry, looked up): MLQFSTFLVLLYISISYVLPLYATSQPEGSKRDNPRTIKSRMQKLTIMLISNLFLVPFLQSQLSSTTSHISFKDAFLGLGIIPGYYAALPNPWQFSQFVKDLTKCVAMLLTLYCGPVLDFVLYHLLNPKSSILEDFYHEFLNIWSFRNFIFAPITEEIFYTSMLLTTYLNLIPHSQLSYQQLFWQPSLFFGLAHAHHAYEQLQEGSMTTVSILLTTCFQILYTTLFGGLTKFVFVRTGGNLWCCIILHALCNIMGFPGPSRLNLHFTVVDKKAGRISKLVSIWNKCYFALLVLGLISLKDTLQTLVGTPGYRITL
MT1-MMP act inh – blockers of MT1-MMP proenzyme processing, primary screen, HT1080 RFP-PRO-GFP cells, GFP/RFP fluorescence | Matrix metalloproteinase-14 (Homo sapiens), P50281 | GFP/RFP ratio fluorescence, overnight; percent of plate control window, DMSO zero | GFP/RFP ratio change, % at 20 µM | 360,000 tested, 0.061% active | AID 651647, 2012;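 active = GFP/RFP ratio change of at least 30% with cell ATP level not reduced by more than half and red fluorescence within 50% of control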; also: strong numbers were not always called active
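Test system: HT1080 RFP-PRO-GFP cells; Benchmarks: DMSO and RFP-L50D-GFP cell wells; Timing: cells overnight before dosing, compound overnight, 37 °C, 5% CO2; Compound: one 20 µM compound dose with 1% DMSO; Read-out: GFP/RFP fluorescence ratio.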
eIF4H FP inh – human eIF4H binding inhibitors, primary screen, translation initiation inhibitor project, biochemical, uHTS, fluorescence polarization. Eukaryotic translation initiation factor 4H (Homo sapiens), Q15056. eIF4H fluorescence polarization binding assay. inhibition, % at 35 µM. 290,000 tested, 0.94% active. AID 2012, 2009;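 active = 50% or more with normal probe brightness, or confirmed in later tests; inconclusive = above 50% with abnormal brightness, or retests that disagree; inactive = below 50% or failed in later tests; about a fifth of its hits are not listed in these tables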;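 also: calls also rest on retests at 20 µM and on dose response follow-up; 0% = protein and probe with vehicle and 100% = probe without protein; strong numbers were not always called active; many hits fall short of the cut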
UUG fidelity – modulators of yeast start codon fidelity, primary screen, whole organism, S. cerevisiae, single point, plate reader. 350,000 tested, 0.13% active. S. cerevisiae UUG-firefly luciferase reporter, luminescence/redox ratio. activity score, % at 18.7 µM. AID 602363, 2012;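 active = replicate mean at a twofold rise or more, about +100% in these data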;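 also: firefly luciferase made from a UUG start codon reports start codon fidelity; reporter light over untreated wells divided by growth signal over untreated wells; some hits fall short of that in this replicate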
eIF4H FP inh retest – recorded beside eIF4H FP inh, whose call it bears; inhibition, %; compound at 20 µM; confirmation average;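 mean of two retest wells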
PABP FP inh retest – recorded beside PABP FP inh, whose call it bears; inhibition, %; compound at 20 µM; confirmation repeats;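 mean of two retest wells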
MT1-MMP act inh RFP – recorded beside MT1-MMP act inh, whose call it bears; RFP signal change, %; measured here: RFP expression control read;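 0 = vehicle wells; hits needed this value within 50% of zero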
Starred values were filed as active, the others as inactive; i = inactive; ? = inconclusive; nt = not tested or not shown. Not all compounds are listed (hit frequency here may not be typical).

SMILES | HIV Env fusion | PABP FP inh | CSC inhib | Rce1 inhib | MT1-MMP act inh | MT1-MMP act inh RFP | eIF4H FP inh | UUG fidelity | others
O=[N+]([O-])c1cc(Cl)ccc1NCCNc1ncc(C(F)(F)F)cc1Cl | nt | -4 | 3 | i | 7 | 2 | -8 | nt
CC(C)NC(=O)[C@H](CSCc1ccccc1)N1Cc2ccccc2C1=O | -7 | 81 | -5 | i | 1 | 3 | -4 | 1 | eIF4H FP inh retest=-6;PABP FP inh retest=5
COC(=O)c1scc(S(=O)(=O)C(C)(C)C)c1-n1cccc1 | -5 | -4 | 10 | i | -3 | 2 | -11 | nt
O=C(N/N=C/c1coc2ccc(Cl)cc2c1=O)c1ccc(O)cc1 | 12 | -3 | 0 | i | -11 | -4 | 0 | -5
O=C(c1ccco1)N(Cc1ccco1)c1ccc(O)cc1 | nt | 6 | -3 | i | -2 | 1 | -3 | -13
COc1ccc2oc(C(=O)OCC(=O)N3CCN(S(=O)(=O)c4ccccc4)CC3)c(C)c2c1 | nt | nt | -4 | i | -7 | 2 | nt | nt
O=C(CSc1nnc(-c2ccccc2F)o1)N1CCCC1 | -18 | 3 | nt | i | 0 | 4 | 6 | -9
Nn1c(SCc2cccc3ccccc23)nnc1-c1ccco1 | -20 | -7 | -6 | i | -4 | -3 | 4 | -14
N#CCCN(Cc1cccs1)C(=O)c1ccc(Cl)cc1 | -5 | -5 | -5 | i | 3 | 3 | -14 | nt
Cc1[nH]c2ccccc2c1C(=O)C(=O)NCCOc1ccccc1 | -14 | -7 | -1 | i | 3 | 0 | -9 | nt
COc1cc(Cl)ccc1S(=O)(=O)n1nc(C)cc1C | nt | 40 | nt | i | 6 | 0 | -1 | -3
CCSc1nnc(-c2cccnc2)n1Cc1ccco1 | 9 | 12 | -2 | i | -7 | -1 | 19 | 1
Cc1cc(/C=C2\SC(=S)N(Cc3ccco3)C2=O)c(C)n1-c1ccccc1 | nt | -1 | ? | i | -54 | -4 | 62 | nt | eIF4H FP inh retest=-3;PABP FP inh retest=14
COc1ccc(-c2csc(C(C)(O)c3ccccc3)n2)cc1 (stereo not drawn) | -298 | nt | nt | nt | -5 | -17 | nt | -12
O=C(C1CCCN(Cc2ccccc2F)C1)N1CCCCC1 (stereo not drawn) | 7 | 4 | -9 | i | 3 | 5 | 8 | -11
CSc1ncccc1C(=O)NNc1cc(Cl)ccc1Cl | nt | -1 | -2 | i | 2 | 2 | -4 | -10
Cc1ccc(-n2nnc(-c3cc4ccccc4nc3Cl)n2)cc1 | -44 | 5 | -12 | i | 7 | -3 | 0 | -16
O=C(NCc1ccccn1)C1CN(S(=O)(=O)c2ccccc2)CCN1S(=O)(=O)c1ccccc1 (stereo not drawn) | 22 | 4 | -2 | i | 0 | -1 | 16 | nt
CC(C)COC(=O)c1ccc(NC(=O)C2C3C=CC(C3)C2C(=O)O)cc1 (stereo not drawn) | nt | -2 | -9 | nt | -1 | 0 | -11 | 3
COC(=O)c1c(C(=O)OC)c(-c2ccc(C(C)(C)C)cc2)n2c1CS(=O)C2 (stereo not drawn) | 17 | -7 | 4 | i | 2 | -3 | -7 | -1

Two compounds picked at random from those above, as already listed:
SMILES | HIV Env fusion | PABP FP inh | CSC inhib | Rce1 inhib | MT1-MMP act inh | MT1-MMP act inh RFP | eIF4H FP inh | UUG fidelity | others
Cc1ccc(-n2nnc(-c3cc4ccccc4nc3Cl)n2)cc1 | -44 | 5 | -12 | i | 7 | -3 | 0 | -16
COc1ccc(-c2csc(C(C)(O)c3ccccc3)n2)cc1 (stereo not drawn) | -298 | nt | nt | nt | -5 | -17 | nt | -12

Next section
SMILES | HIV Env fusion | PABP FP inh | CSC inhib | Rce1 inhib | MT1-MMP act inh | MT1-MMP act inh RFP | eIF4H FP inh | UUG fidelity | others
CCc1nc2c(cnn2-c2ccc(Cl)cc2)c(=O)n1-c1ccc(OC)cc1 | 18 | -3 | -12 | i | -12 | -13 | 6 | -1
COc1ccc(CCNC(=O)CSc2ccc(-c3ccncc3)nn2)cc1 | 0 | 55 | -1 | i | 5 | -1 | 1.1* | -18 | eIF4H FP inh retest=77*;PABP FP inh retest=50
CCN(CC)S(=O)(=O)c1cccc(NC(=O)C2SC(=Nc3ccc(C)cc3C)C(C(=O)NCC3CCCO3)=C2N)c1 (stereo not drawn) | -9 | -2 | 14 | i | 4 | 2 | 0 | -9
Cn1ncc(Cl)c1C(=O)NCC1CCCO1 (stereo not drawn) | -208 | 10 | 17 | i | -4 | -1 | -4 | -19
CC(C)c1cc(NC(=O)CCl)on1 | -22 | 22 | -9 | i | -7 | -3 | -5 | nt
NC(=O)C(c1ccc(Cl)cc1)c1ccc(Sc2ccccc2)nn1 (stereo not drawn) | nt | -6 | -20 | i | 11 | -5 | 0 | 2
O=C(CNC(=O)OCc1ccccc1)OC(c1ccccc1)c1ccccc1 | -6 | nt | nt | nt | -6 | -6 | nt | -6
c1ccc(-n2nnnc2SCc2ccccn2)cc1 | -96 | 8 | -7 | i | 5 | 8 | -5 | -16
CC(=NNC(=O)CCC(=O)Nc1ccccc1Cl)c1ccco1 | 5 | nt | -6 | nt | -3 | 1 | nt | -25
O=C(NCCC1=CCCCC1)C1CCN(S(=O)(=O)c2ccc(Br)s2)CC1 | -2 | -2 | nt | i | -8 | -8 | 2 | -10
COCCN(Cc1cc2cc(C)ccc2nc1Cl)C(=O)Nc1ccccc1OC | -2 | -2 | 3 | i | -1 | -4 | -10 | nt
CCCS(=O)(=O)c1c(S(=O)(=O)CCC)c2ccccn2c1C(=O)OC | -1 | -6 | 11 | i | 0 | 7 | -13 | 2
Cc1ccnc(NS(=O)(=O)c2ccc(NC(=O)Cc3c(F)cccc3Cl)cc2)n1 | 5 | -7 | -16 | i | 1 | 4 | -7 | -21
COc1ccc(C(=O)N/N=C(\C)c2ccc3c(c2)C2C=CCC2C(c2ccccc2)N3)cc1 (stereo not drawn) | nt | -1 | 6 | nt | -2 | 8 | -4 | nt
Nc1c2c(nc3sc4c(c13)CCCC4)-c1ccccc1CC2 | i | -3 | 40 | i | 2 | -2 | 2 | -5
CCOC(=O)c1sc(NC(=O)c2cccc(S(=O)(=O)N3c4ccccc4CC3C)c2)cc1C (stereo not drawn) | -3 | 1 | -26 | i | -4 | -5 | -10 | nt
COc1ccc(C(=O)CC(=O)c2ccccc2O)cc1OC | 9 | -4 | -8 | i | -5 | -1 | -2 | nt
Cc1[nH][nH]c(=O)c1C(c1ccc(N(C)C)c(Br)c1)c1c(C)[nH][nH]c1=O | 5 | 4 | -5 | i | 4 | 4 | 2 | nt
O=C(NNc1nc2c(F)cccc2s1)C1COc2ccccc2O1 (stereo not drawn) | 6 | 25 | -15 | i | 0 | 2 | 0 | nt
CC[C@@]12C(=O)N(c3cccc(Br)c3)C(=O)N1[C@H](c1ccc(OC)cc1)[C@@H]1C(=O)N(C(C)(C)C)C(=O)[C@@H]12 | 96* | nt | -14 | i | 1 | -3 | nt | -2
O=C(NNc1ccccc1)C(=O)NNS(=O)(=O)c1ccc(CCCl)cc1 | -5 | -2 | 105* | i | -3 | 2 | -4 | nt
COc1ccc(CCC(=O)N2CCN(c3cccc(C)c3C)CC2)cc1 | 4 | 3 | -13 | nt | -1 | 0 | -3 | 0
Cc1ccc(S(=O)(=O)N2CCCCC2)cc1NC(=O)Cn1cnnn1 | 24 | 10 | 0 | i | 0 | 2 | -6 | -2
COc1cc2[nH]c(=S)n(Cc3ccco3)c(=O)c2cc1OC | -10 | 23* | 26 | i | 9 | -5 | 52* | -21 | eIF4H FP inh retest=82*;PABP FP inh retest=59*
NC(=O)CSCc1c(Cl)cccc1Cl | nt | -3 | -6 | i | 5 | 0 | 4 | -11
O=C1Oc2ccccc2C(=O)/C1=C/N1CCN(c2ccccc2F)CC1 | 25 | -1 | -2 | i | -29 | -4 | 6 | nt
CC1(C)Cc2ccccc2-c2nnc(SCC(=O)Nc3ccc4c(c3)OCO4)n21 | -101 | 4 | 17 | i | 6 | -12 | 4 | 15
COc1ccc(CCNc2oc(COc3ccccc3F)nc2C#N)cc1 | 4 | -8 | 0 | i | -2 | -3 | -8 | -8
CCOc1ccc(N(CC(=O)NN=C2CCCC2)S(C)(=O)=O)cc1 | 19 | 0 | 4 | i | 4 | 8 | -6 | -4
CCOC(=O)C1=C(O)/C(=C/c2ccc(OCC(=O)O)c(OC)c2)SC1=Nc1ccc(OC)cc1 | 19 | 0 | -12 | i | 4 | 3 | 2 | -2
CC(=O)NCCNC(=O)[C@H](Cc1ccccc1)NC(=O)c1cccs1 | -37 | 1 | -15 | i | -4 | -2 | 3 | -2
CC(=O)N1CCSc2ccc(S(=O)(=O)NCCc3ccc(C)cc3)cc21 | 4 | 8 | -11 | i | 2 | -16 | -12 | 21
COc1ccccc1C(=O)C(O)c1ccccc1OC (stereo not drawn) | 2 | 6 | -20 | i | 4 | 7 | 9 | 11
COc1ccc(OCc2nc(N)nc(Nc3ccccc3)n2)cc1 | -38 | 0 | -16 | i | 1 | -4 | -9 | -9
Cc1cccc(/C=C/c2ccccc2)n1 | -20 | nt | nt | nt | 3 | 4 | nt | -24
CCCCc1ccc(NC(=S)NCCc2ccc(S(N)(=O)=O)cc2)cc1 | -1 | -4 | 14 | i | 5 | -1 | 4 | -14
COC(=O)c1ccccc1NC(=O)c1cccc(NC(=O)c2ccc(Br)o2)c1C | nt | -3 | 7 | i | -3 | 1 | 2 | -8
CC(C)(C)Cc1c(-c2ccccc2)nc2ccc(Br)cn12 | -31 | nt | nt | nt | -2 | -4 | nt | 6
CCN(CC)S(=O)(=O)c1ccc(NC(=O)COC(=O)c2cnc(C)cn2)cc1 | 4 | -6 | -11 | i | 0 | 4 | -2 | 0
C=C[C@H](CC(C)C)N(Cc1ccccc1)S(=O)(=O)N(Cc1ccccc1)[C@@H](C=C)CC(C)C | ? | nt | 16 | nt | -2 | -15 | nt | -7
COc1cc(/C=N\Nc2nc(-c3cccs3)c(NC(C)=O)s2)ccc1O | -64 | 2 | -2 | i | 6 | 6 | -7 | nt
COc1ccc(Cl)cc1NC(=O)CSc1nnc(CN2CCOCC2)n1-c1ccc(Cl)cc1 | ? | 0 | -10 | i | 2 | -5 | -9 | 4
CCOc1ccc(Br)cc1S(=O)(=O)Nc1ccc(Cl)c(S(=O)(=O)N(CC)c2ccccc2)c1 | -4 | -12 | 45 | i | -6 | -8 | -3 | -8
O=C(c1ccccc1)c1ccc(N2CCOCC2)c(F)c1 | -194 | -1 | -3 | i | -1 | -2 | 5 | 0
Cc1ccc(Nc2ccc(N3CCN(c4ccc([N+](=O)[O-])cc4)CC3)nn2)cc1 | -44 | 8 | -2 | i | 2 | 2 | -4 | -9
CC1(C(=O)Nc2cnc3ccccc3c2)CCN1Cc1ccc2c(c1)OCCO2 (stereo not drawn) | 18 | nt | nt | nt | -1 | 3 | nt | -19
O=S(=O)(c1ccccc1F)N1CCN(Cc2nc3ccccc3[nH]2)CC1 | nt | 20 | -6 | i | 2 | 3 | -10 | -15
O=C(O)c1ccc(/C=N/N2CCN(c3ccccc3)CC2)cc1 | -20 | -3 | -1 | i | 0 | -2 | -6 | -10

Compound activity as filed in PubChem BioAssay.
